Assay outcomes (PubChem)
UCH37 inh – inhibitors of human UCH37 deubiquitinase, primary screen, biochemical, Ub-AMC cleavage, fluorescence; hit rate 0.33% among 330,000; Ubiquitin carboxyl-terminal hydrolase isozyme L5 (Homo sapiens), Q9Y5K5; inhibition, % (no concentration beside the values); purified proteasome/UCH37;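 active means mean of two replicates above 20%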;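 further: 0% = compound-free wells with enzyme and 100% = wells lacking proteasome; stock transfer was 100 nL into about 20 µL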
Target sequence (Q9Y5K5 whole entry, looked up): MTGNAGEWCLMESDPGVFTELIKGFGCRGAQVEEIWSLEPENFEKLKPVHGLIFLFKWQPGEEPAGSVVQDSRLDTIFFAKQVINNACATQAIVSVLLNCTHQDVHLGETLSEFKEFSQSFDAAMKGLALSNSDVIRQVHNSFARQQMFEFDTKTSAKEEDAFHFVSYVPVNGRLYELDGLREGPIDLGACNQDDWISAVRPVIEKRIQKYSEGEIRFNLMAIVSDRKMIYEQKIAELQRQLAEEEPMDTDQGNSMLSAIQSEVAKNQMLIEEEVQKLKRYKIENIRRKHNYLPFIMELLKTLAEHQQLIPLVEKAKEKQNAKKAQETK
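Material: human UCH37 enzyme supplied as purified proteasome complex / Amount: 0.15 nM proteasome as dispensed / Buffer or medium: pH 7.4 Tris-HCl (50 mM) with ovalbumin, ATP-MgCl2, DTT / Times: preincubation 30 min, reaction 25 min, room temperature / Technique: AMC fluorescence from Ub-AMC cleavage, excitation 355 nm, emission 460 nm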
Beta apoptosis – inhibitors of cytokine-induced beta cell apoptosis, primary screen, luminescence; INS-1E cytokine-induced death, ATP luminescence, 48 h; percent of positive-control rescue, neutral wells zero; hit rate 0.8% among 300,000; protection from apoptosis, % (concentration not given with the values);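 active means all replicates at 75% or more, or half of them and the mean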;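 further: 0% = cytokine-treated negative control wells and 100% = positive control rescue; higher means more ATP so stronger rescue from cytokine killing; wells of about 40 µL received 100 nL stock; the first replicate is given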
Ecoli rRNA inh – reduced GFP signal of wild-type E. coli, primary screen, bacterial rRNA inhibitor project, GFP/RFP fluorescence, OD600, single point; hit rate 1.6% among 350,000; GFP signal change (wild-type ribosome), % (no concentration beside the values); AID 720706, 2013; E. coli WT GFP vs humanized-ribosome RFP mutants, 24 h; hits give low values; DMSO median 0, no signal -100;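 active means significant combined selectivity score with lowered wild-type GFP, culture density cut under 30%, mutant RFP and density less affected; inactive means any of these conditions unmet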; further: one replicate is shown; some compounds called inactive have numbers as strong as hits
Ecoli growth – E. coli growth inhibition, primary screen, OD600. Escherichia coli growth, 23 h; hits give low values. OD600 absorbance (test concentration not listed). hit rate 0.21% among 330,000. AID 1053175, 2014;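 active means OD600 absorbance below the run mean of sample wells minus 3.6 SD, in any replicate, cut at about 0.56 in these data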;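 further: stock transfer was 300 nL into about 60 µL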
AF4-AF9 inh – inhibitors of AF4 peptide binding to AF9, primary screen, biochemical, AlphaScreen, biotin-AF4 peptide, FLAG-AF9, single point | Protein AF-9 (Homo sapiens), P42568 | inhibition, % at 10 µM | hit rate 0.47% among 350,000 | AID 651704, 2012;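 active means every replicate reaching a set inhibition limit, whatever the replicate mean, cut at about 25% in these data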;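 further: 0% = plate neutral control median and 100% = total signal loss; the record names both 10 and 1 µM as test concentration; the first replicate is given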
Target sequence (P42568 whole entry, looked up): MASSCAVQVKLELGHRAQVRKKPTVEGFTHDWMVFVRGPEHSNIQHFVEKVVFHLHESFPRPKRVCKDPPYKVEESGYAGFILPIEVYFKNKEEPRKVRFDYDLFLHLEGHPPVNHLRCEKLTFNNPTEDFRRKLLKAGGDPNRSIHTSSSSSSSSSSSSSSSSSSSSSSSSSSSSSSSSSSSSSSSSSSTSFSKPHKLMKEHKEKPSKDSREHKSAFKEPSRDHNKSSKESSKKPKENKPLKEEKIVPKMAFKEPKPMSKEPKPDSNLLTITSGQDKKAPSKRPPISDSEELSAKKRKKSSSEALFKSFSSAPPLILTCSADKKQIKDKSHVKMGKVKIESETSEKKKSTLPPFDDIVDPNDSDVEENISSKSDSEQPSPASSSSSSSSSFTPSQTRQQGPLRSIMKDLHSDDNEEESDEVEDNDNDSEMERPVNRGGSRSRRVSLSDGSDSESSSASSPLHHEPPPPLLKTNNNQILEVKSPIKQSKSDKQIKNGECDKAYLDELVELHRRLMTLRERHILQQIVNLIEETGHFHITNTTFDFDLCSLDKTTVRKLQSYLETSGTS
Bfl-1 A1 inh – caspase 3/7 activation in MEF A1-2A-BIM cells, primary screen, A1 inhibitor project, cell-based, luminescence, HTS; Caspase-Glo 3/7 luminescence, 3 h; percent of clofoctol response, vehicle zero; caspase activation, % (test concentration not listed); hit rate 0.066% among 330,000; AID 2462, 2010;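 active means over half of replicate activation scores above 10%, or exactly half above 10 with the replicate mean above 10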;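 further: wells of about 30 µL received 50 nL stock; many hits fall short of the cut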
FGF22 binding – binders of human FGF22 protein, primary screen, FGF22 synaptogenesis inhibitor project, biophysical, thermal shift, single point; recombinant FGF22 thermal shift, SYPRO orange fluorescence; percent of sucrose octasulfate shift, DMSO zero; Fibroblast growth factor 22 (Homo sapiens), Q9HCT0; hit rate 1.5% among 340,000; calls only at 9.99 µM;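 active means melting point raised past a set limit in the mean and every replicate; three in four hits are not shown here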
Target sequence (Q9HCT0 whole entry, looked up): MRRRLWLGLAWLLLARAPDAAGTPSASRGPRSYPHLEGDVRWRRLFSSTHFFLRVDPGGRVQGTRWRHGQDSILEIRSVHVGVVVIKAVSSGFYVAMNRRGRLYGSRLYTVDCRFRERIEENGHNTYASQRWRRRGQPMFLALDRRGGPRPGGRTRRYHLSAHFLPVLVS
T cruzi inh – inhibitors of intracellular T. cruzi growth, primary screen, luminescence, NIH3T3 host cells | T. cruzi beta-gal in NIH3T3, 90 h | hit rate 1.4% among 300,000 | inhibition, % (no concentration beside the values);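 active means mean inhibition across valid replicates above about 55%, limit read from the data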;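 further: signal also drops with host cell toxicity which is not excluded here; 0% = plate median of DMSO wells and 100% = zero luminescence signal; higher percent means less beta-gal luminescence so fewer parasites; stock transfer was 50 nL into about 50 µL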
Ecoli rRNA inh OD600 – further read-out of Ecoli rRNA inh, marked with its call; OD600 change, %; measured here: OD600 growth;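 optical density of the mix in the first replicate; 0 = DMSO median and -100 = no signal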
Ecoli rRNA inh RFP – further read-out of Ecoli rRNA inh, marked with its call; RFP signal change, %; measured here: RFP humanized mutant strains;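 first replicate; 0 = DMSO median and -100 = no signal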
An asterisk follows results filed as active; i = inactive; . = no result given; + = active, no number.

SMILES	UCH37 inh	Beta apoptosis	Ecoli rRNA inh	Ecoli rRNA inh OD600	Ecoli rRNA inh RFP	Ecoli growth	AF4-AF9 inh	Bfl-1 A1 inh	FGF22 binding	T cruzi inh
COC(=O)c1sccc1NC(=O)CSc1ccccc1NS(=O)(=O)c1ccccc1Cl	0.9	-3	.	.	.	0.7	.	-0.3	.	7
NNC(=O)c1cnn(-c2ccccc2)c1-n1cccc1	3.9	-10	2	-6	0.8	0.72	-2.0	1.2	i	-6
NC1(C(=O)O)CC1	5.2	2	.	.	.	0.72	0.4	-0.2	i	-15
COc1ccc(-c2cc(C(=O)NCC3CCCO3)c3ccccc3n2)c(OC)c1 (centres undefined)	-11	1	-4	-10	-1.6	0.7	1.2	-0.7	i	-8
COc1ccc2[nH]c3c(c2c1)CCN1C(=O)C(CC(=O)NCc2ccc(OC)c(OC)c2)C[C@H](C(=O)N2CCOCC2)[C@@]31CCC1CCCC1 (some centres undefined)	2.4	.	7	8	2.0	0.69	7.4	.	i	.
CNC(=O)/C(C#N)=C/c1ccc(OCCOc2ccccc2)cc1	2.0	-1	-8	-1	-1.8	0.71	-2.2	0.3	i	-19
NC(=O)CSc1ncc(-c2ccc([N+](=O)[O-])cc2)[nH]1	8.5	0	14	8	2.0	0.63	1.7	0.3	i	3
Cc1cc(C(=O)N(C)Cc2ccc(Br)cc2)no1	-0.1	-6	.	.	.	0.66	.	-0.4	.	-7
Cc1ccc(NC(=O)CN2CCC(NC(=O)C3CCCCC3)CC2)c(Br)c1	2.5	1	10	6	-0.6	0.69	-4.6	0.9	i	2
CC(=O)Nc1ccc(N=C(C2=C(O)c3ccccc3C2=O)c2ccccc2)cc1	11	8	-1	1	1.3	0.71	5.8	-2.2	i	-1
CCN(CC)C(=O)COc1ccc(S(=O)(=O)N2CCOCC2)cc1	-0.2	0	.	.	.	0.68	.	0.5	.	-10
Cc1nnsc1S(=O)c1ccc(Cl)c(Cl)c1 (centres undefined)	6.2	.	-17	-30	-19	0.65	-1.9	-0.4	i	39
Cc1cccc(C(=O)OC2CCCN(C)C2)c1C (centres undefined)	2.7	-1	10	10	0.3	0.69	0.7	1.4	i	16
C=CCn1c(SCC(=O)c2ccc(CNC(C)=O)o2)nc2ccccc2c1=O	2.5	1	.	.	.	0.77	.	0.3	.	-8
COc1ccc(CN(C)C(=O)COc2cccc(-n3cnnn3)c2)cc1OC	1.8	-4	-3	-1	-3.3	0.69	-1.7	-1.2	i	.
Cc1onc(-c2ccc(Cl)cc2)c1-c1ccnc(SCC(=O)Nc2cc(Cl)cc(Cl)c2)n1	0.8	-5	.	.	.	0.69	-0.2	-0.5	i	59*
Nc1c(-c2n[nH]c(=S)n2-c2ccc(Cl)cc2Cl)cnn1-c1ccccc1	3.5	-8	8	9	1.6	0.69	0.6	0.4	i	10
Cc1ccc(C(=O)COC(=O)CNC(=O)CN2C(=O)c3ccccc3C2=O)cc1	0.3	-2	.	.	.	0.73	.	-0.1	.	7
COCCCn1c(=O)c2ccccc2n(CC(=O)NC2CCCC2)c1=O	2.1	1	6	10	-1.7	0.67	2.3	-0.2	i	-19
COc1ccc(Cl)c(Cn2c(NCc3ccccn3)nc3c2c(=O)n(C)c(=O)n3C)c1	2.1	3	.	.	.	0.69	.	0.4	.	-2
O=C(NNC(=S)NC(=O)c1ccc(F)cc1)c1ccncc1	.	1	-47	-68	-13	.	0.4	0.6	i	.
COCCn1c(SCC(=O)NCc2ccco2)nnc1C(C)C	-1.5	-1	.	.	.	0.71	.	0.4	.	-13
COc1ccccc1NC(=O)c1ccc(N2CC3CC(C2)c2cccc(=O)n2C3)c(NC(=O)c2cccnc2)c1 (centres undefined)	-0.3	1	1	0	0.4	0.67	-6.7	0.9	i	3
COCCCNc1oc(-c2ccccc2OC)nc1C#N	-372	-1	.	.	.	0.61	.	0.5	.	-2
COc1ccc(CCN2C(=O)CC(C(N)=O)SC2=Nc2ccccc2)cc1 (centres undefined)	3.4	4	-27*	-2.8*	0.1*	0.65	3.0	0.2	i	.

The listing continues.
SMILES	UCH37 inh	Beta apoptosis	Ecoli rRNA inh	Ecoli rRNA inh OD600	Ecoli rRNA inh RFP	Ecoli growth	AF4-AF9 inh	Bfl-1 A1 inh	FGF22 binding	T cruzi inh
COC(=O)c1cc(C(=O)OCC(=O)N2c3ccccc3NC(=O)C2(C)C)cc([N+](=O)[O-])c1	-0.8	-4	.	.	.	0.71	.	0.3	.	1
O=C(COc1cccc(NC(=O)c2ccco2)c1)c1ccc(F)cc1	3.1	1	.	.	.	0.67	.	0.2	.	.
Cn1cnnc1SCc1ccc(C(=O)NN)cc1	-0.5	-1	15	7	2.2	0.67	-2.2	-0.2	.	-6
CCOc1ccc(OCCC(=O)N(CC)CC(=O)Nc2ccccc2C(F)(F)F)cc1	2.5	56	-1	-2	1.7	0.71	-0.5	-0.2	i	-9
O=C(Nc1cc(-c2ccccc2)nn1-c1ccccc1)c1ccccc1F	1.1	3	5	-5	-4.5	0.7	-13	0.7	i	.
O=C(N/N=C/c1ccc(-c2cccc([N+](=O)[O-])c2)o1)c1ccccc1O	.	20	8	8	1.5	.	1.2	0.7	i	-10
NS(=O)(=O)c1cc2c(cc1Cl)NC(C1C[C@H]3C=C[C@@H]1C3)NS2(=O)=O (some centres undefined)	0.5	3	5	14	1.1	.	1.8	0.0	i	-8
COc1nc(C)nc2c1ccc1ccccc12	0.1	-7	.	.	.	0.75	.	-1.5	.	-11
CCc1cc2c(C)ccc(C)c2nc1SCC(=O)Nc1c(C)[nH]c(=O)[nH]c1=O	0.8	-3	4	-5	3.8	0.63	-2.9	0.0	i	-1
COc1ccc(/C=C2\SC(=S)N(CC(=O)OCC(=O)Nc3cc(Cl)cc(Cl)c3)C2=O)cc1	.	-6	-3	-1	-2.2	.	4.2	-0.4	i	-2
O=C(O)C1CC(=O)N(c2ccc(OCc3ccc(Cl)cc3Cl)cc2)C1 (centres undefined)	2.9	-4	-46	-40	-15	0.73	-45	0.3	i	-6
CCCCNC(=O)c1onc(CSc2ccc(C(C)C)cc2)c1C(=O)O	0.0	0	-51	-78	-24	0.68	-12	0.3	+	-21
COc1cc(C)ccc1OCC(=O)OCC(=O)c1[nH]c(C)c(C(C)=O)c1C	5.1	1	0	-10	3.2	0.67	-1.9	-1.2	i	.
CC(C)OC(=O)C(C)Nc1ccc(F)c(Cl)c1 (centres undefined)	3.0	-1	4	6	-0.9	0.66	-2.5	0.0	i	3
Cc1nc(SCc2nc3ccccc3[nH]2)c2oc3ccccc3c2n1	-2.9	5	.	.	.	0.77	.	0.5	.	9
CC(C)n1cc([C@@H]2C[C@H]3CN(Cc4cccc(Cl)c4)C(=O)[C@]34CCCN24)cn1	0.6	0	16	5	6.5	.	2.0	0.5	i	11
CCOC(=O)c1ccc(N2C(=O)C(O)=C(C(C)=O)C2c2ccc([N+](=O)[O-])cc2)cc1 (centres undefined)	15	-10	-1	6	0.1	0.69	4.8	0.0	i	-2
CCN(CC(=O)Nc1c(F)cccc1F)C(=O)c1ccc2c(c1)OCCO2	0.0	2	14	10	1.4	0.64	-1.5	-0.6	.	3
Cc1cccc(C)c1OCC(=O)N(Cc1ccc(N(C)C)cc1)C1CCS(=O)(=O)C1 (centres undefined)	6.2	-8	4	-5	1.1	0.65	4.5	-1.3	.	11
CSc1cc(C)[nH]c(=O)n1	1.7	2	11	13	-0.9	0.69	-1.8	-0.2	i	-10
CCOC(=O)c1c(NC(=O)CC)sc(C(C)=O)c1C	0.1	-3	.	.	.	0.76	.	0.3	.	10
Cc1ccc(C)n1NC(=O)c1ccc(Cl)cc1	1.7	-2	.	.	.	0.74	.	0.9	.	3
C=CCOc1ccc(CNc2nn[nH]n2)cc1OC	-2.6	-3	.	.	.	0.76	.	-0.9	.	-8
COc1cccc(-c2c(C(=O)N/N=C/c3ccsc3)nnn2-c2nonc2N)c1	.	-4	-4	7	1.6	.	-3.2	-1.1	i	-7
Cc1ccc(-c2ccc(=O)n(CC(=O)NCCC(C)C)n2)cc1	-10	-2	0	11	0.2	0.67	-6.6	0.0	i	1

Next results.
SMILES	UCH37 inh	Beta apoptosis	Ecoli rRNA inh	Ecoli rRNA inh OD600	Ecoli rRNA inh RFP	Ecoli growth	AF4-AF9 inh	Bfl-1 A1 inh	FGF22 binding	T cruzi inh
CCOC(=O)C1=NN(c2ccc(Cl)cc2)C(c2ccccc2)CC1=O (centres undefined)	6.5	4	.	.	.	0.71	.	-0.6	.	-6
CCCN(CCC)C(=O)C1CCN(c2cc(C)nc3c(-c4ccc(OC)c(OC)c4)c(C)nn23)CC1	5.6	13	6	11	0.1	0.73	-3.5	0.0	i	29
Cc1ccc(C(=O)N/C(=C\c2ccc(Cl)cc2)C(=O)NCCCN2CCOCC2)cc1	-1.3	-3	16	6	2.7	0.64	6.7	-0.5	i	-1
CN(C(=O)c1c[nH]c(=O)cc1C(F)(F)F)c1ccc(Cl)c(Cl)c1	1.3	4	-6	-3	-2.0	0.66	-8.8	-0.8	i	-12
Cc1ccc(C)c(-c2cc(C(=O)Nc3cccnc3)c3ccccc3n2)c1	0.6	23	-31	-35	-4.1	0.67	1.5	-0.4	i	8
CCOC(=O)COc1ccc2c3c(c(=O)oc2c1)CCCC3	-23	-5	0	10	-2.6	0.72	0.1	-1.3	i	4
COc1cc(OC)c(NC(=O)Cc2ccc(OC)c(S(=O)(=O)N3CCOCC3)c2)cc1Cl	5.6	-2	1	-7	6.3	0.7	0.5	1.0	i	3
COC(=O)c1ccc(NC(=O)CN2C(=O)CC(C)S(=O)(=O)c3ccccc32)cc1 (centres undefined)	-2.9	-5	4	8	2.0	0.63	-0.1	0.1	i	0
CNC(=S)NCc1ccc2[nH]c(C)cc2c1	2.8	2	5	9	6.2	0.65	5.6	-0.6	i	-7
O=C(NCCc1ccc(Cl)cc1)C1CCC(=O)N1Cc1ccccc1Cl (centres undefined)	3.8	1	.	.	.	0.65	.	-0.1	.	-2
O=C(/C=C/Nc1ccc(F)cc1)c1ccc(Br)cc1	-5.3	-10	8	11	5.7	0.67	0.2	-4.4	i	-11

Random excerpt: three records from the list
SMILES	UCH37 inh	Beta apoptosis	Ecoli rRNA inh	Ecoli rRNA inh OD600	Ecoli rRNA inh RFP	Ecoli growth	AF4-AF9 inh	Bfl-1 A1 inh	FGF22 binding	T cruzi inh
COc1cc(C)ccc1OCC(=O)OCC(=O)c1[nH]c(C)c(C(C)=O)c1C	5.1	1	0	-10	3.2	0.67	-1.9	-1.2	i	.
CCCN(CCC)C(=O)C1CCN(c2cc(C)nc3c(-c4ccc(OC)c(OC)c4)c(C)nn23)CC1	5.6	13	6	11	0.1	0.73	-3.5	0.0	i	29
CCOC(=O)C1=NN(c2ccc(Cl)cc2)C(c2ccccc2)CC1=O (centres undefined)	6.5	4	.	.	.	0.71	.	-0.6	.	-6

An excerpt, so the mix of outcomes need not match the whole.
